# gsp antag: antagonists of gsp mutant (McCune-Albright syndrome); gsp-mutant cells, cAMP HTRF, 30 min; control for the full effect not named in the record; Potency, µM (titrated, usually from 76.9 µM), inactives show top-dose activity change, negative = inhibition, most hits filed as inhibitors; 340,000 tested, 0.4% active; active = falling curve of any shape with a large fitted effect; inconclusive = falling curve, mostly with a smaller effect; inactive = flat or rising curve; cell line not stated here;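 also: intracellular cAMP measured with PDE inhibitor Ro 20-1724 present during compound exposure; potency is read from the fitted curve at half-maximal effect; % is scaled to controls: 0 for no effect and ±100 for the full control effect; nearly all actives have a fitted effect of over 65% in size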
#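 Cells in G418 medium, seeded 16-24 h, 37C; buffer exchange to DPBS + 1 mM CaCl2, 0.5 mM MgCl2, 0.05% BSA; cpds in DMSO + […] (300 uM stock), 30 min 37C; HTRF cAMP detection.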
# D2 potentiator: human D2 receptor positive allosteric modulation; 360,000 tested, 0.23% active; AID 624464; P14416; DiscoveRx D2 beta-arrestin cells, luminescence, 90 min; 100% = 57 uM dopamine signal; potentiation, % (test concentration not listed); active = potentiation of 50% or more; inconclusive = 30% to 50%; inactive = 30% or less;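 also: compound concentration not given in the record; tested on top of an EC20 dose of dopamine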
#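 PathHunter beta-arrestin assay in DiscoveRx D2 cells. Compounds were added with an EC20 of dopamine (50 nM final) for 90 min at 37 deg C. Luminescence was read 1 h after detection reagent, with 57 uM dopamine as the EC100 control.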
# Menin MLL FP FL: inhibitors of human menin-MLL interaction, wild-type MLL peptide | Fluorescence polarization, fluorescein-MLL peptide displacement from menin | FP activity change, % at 61.4 µM | 290,000 tested, under 10 active | AID 1766; inconclusive = falling polarisation curve, or a change in total fluorescence; inactive = total fluorescence flat and polarisation flat or rising; no compound was filed as active; the % refers to the polarisation; negative = inhibition;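 also: % of control where 0% means no effect; inhibitors lower the polarisation; unlabelled MLL peptide was the positive control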
# ClpP mod: qHTS Assay for Activators of ClpP. purified B. subtilis ClpP, FRET peptide cleavage, 20 min. 340,000 tested, 1.9% active. ATP-dependent Clp protease proteolytic subunit (Bacillus subtilis (strain 168)), P80244. AID 651965, 2013. Potency, µM (highest dose often 57.5 µM), for inactives: at the highest dose activity change, negative = active; active = well fitted falling curve with a large enough effect; inconclusive = small, poorly fitted or top-dose-only effect; inactive = no such curve, though single readings can be large or run the other way; also: potency is read from the fitted curve at half-maximal effect; the source files actives as falling curves though it sought activators and does not explain the sign; nearly all actives have a fitted effect of over 65% in size; many hits overshoot -100%
# Target sequence (P80244 whole entry, looked up): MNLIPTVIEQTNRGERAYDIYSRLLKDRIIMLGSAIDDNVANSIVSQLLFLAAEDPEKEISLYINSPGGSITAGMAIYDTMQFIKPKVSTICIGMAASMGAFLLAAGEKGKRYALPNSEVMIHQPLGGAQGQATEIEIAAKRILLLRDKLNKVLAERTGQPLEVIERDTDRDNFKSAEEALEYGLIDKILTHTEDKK
#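 FRET quenching reversal measured ClpP activation: 10 microg/mL B. subtilis ClpP at pH 8 with the FRET-FV decapeptide, read at 430 nm after 320 nm excitation. The 20-min minus 0-min signal was scaled between DMSO/no-enzyme wells and ADEP (5.8 microM final).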
# TRPV1 PAM: enhances activation of the human vanilloid receptor TRPV1 | 320,000 tested, 0.02% active | potentiation, % at 8.33 µM | TRPV1-expressing cells, Fluo-8 calcium influx, capsaicin EC20 potentiation; host cell line not named in the record; control for the full effect not named in the record | Q8NER1 | AID 540277; active means potentiation above 80%; inconclusive means 30% to 80%; inactive means below 30%; also: 0% is about no effect
# Target sequence (Q8NER1 whole entry, looked up): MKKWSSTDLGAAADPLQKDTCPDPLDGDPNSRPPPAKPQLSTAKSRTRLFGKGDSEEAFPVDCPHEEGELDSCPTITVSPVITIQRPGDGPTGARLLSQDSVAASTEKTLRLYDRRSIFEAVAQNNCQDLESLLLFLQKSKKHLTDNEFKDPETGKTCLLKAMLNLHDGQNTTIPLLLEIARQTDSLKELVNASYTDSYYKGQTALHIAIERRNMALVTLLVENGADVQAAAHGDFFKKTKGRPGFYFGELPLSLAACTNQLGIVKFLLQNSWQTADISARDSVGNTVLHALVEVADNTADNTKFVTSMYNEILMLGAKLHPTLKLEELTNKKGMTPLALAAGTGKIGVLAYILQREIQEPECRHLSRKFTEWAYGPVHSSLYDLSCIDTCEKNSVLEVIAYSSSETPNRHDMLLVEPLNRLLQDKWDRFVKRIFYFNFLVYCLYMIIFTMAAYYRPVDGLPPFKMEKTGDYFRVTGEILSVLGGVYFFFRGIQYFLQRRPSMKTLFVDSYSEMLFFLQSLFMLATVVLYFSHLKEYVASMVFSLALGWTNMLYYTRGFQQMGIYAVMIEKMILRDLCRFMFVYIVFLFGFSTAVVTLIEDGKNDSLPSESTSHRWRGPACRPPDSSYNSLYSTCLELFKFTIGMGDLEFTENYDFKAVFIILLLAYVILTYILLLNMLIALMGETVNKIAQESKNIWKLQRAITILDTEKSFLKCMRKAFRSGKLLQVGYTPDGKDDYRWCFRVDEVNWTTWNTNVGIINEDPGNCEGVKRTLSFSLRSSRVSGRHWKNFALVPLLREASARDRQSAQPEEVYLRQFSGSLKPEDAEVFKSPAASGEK
#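 Fluo-8 calcium influx in TRPV1-expressing cells, kinetic read (ex 480/em 520 nm). Compound added and read 3 min for agonist activity, followed by capsaicin at EC20 final and 2 min further read for enhancement.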
# Sfp inh: blocks B. subtilis Sfp PPTase activity; Biochemical Sfp PPTase activity, qHTS; 310,000 tested, 3.5% active; Potency, µM, without a hit: max response, negative = inhibition, actives largely listed as inhibitors; active = well fitted inhibition curve with a large enough effect; inconclusive = small, poorly fitted or top-dose-only effect, or another doubt; inactive = no such curve, though single readings can be large or run the other way;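 also: the enzyme is Sfp with the accession as filed and its product quenches rhodamine fluorescence; potency is read from the fitted curve at half-maximal effect; 0% = enzyme reaction without inhibitor and -100% = no enzyme wells; top concentration of the series not given in the record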
#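 With Hepes-Na pH 7.6 buffer containing 10 mM MgCl2, Sfp (15 nM) modified BHQ-2-YbbR (12.5 uM) using rhodamine-CoA (5 uM). Two reads 30 minutes apart at 525/598 nm yielded each well's rate.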
# gsp ag: agonists of gsp mutant (McCune-Albright syndrome) | gsp mutant cells, cAMP HTRF, 30 min; control for the full effect not named in the record | 340,000 tested, 0.13% active | Potency, µM (top dose mostly 76.9 µM), inactives show at the highest dose activation (cAMP increase), usual class: activators; active = well fitted activation curve with a large enough effect; inconclusive = small, poorly fitted or top-dose-only effect, or another doubt; inactive = no such curve, though single readings can be large or run the other way; cell line not stated here;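 also: phosphodiesterase inhibitor Ro 20-1724 added with compounds to block cAMP breakdown; potency is read from the fitted curve at half-maximal effect; nearly all actives have a fitted effect of over 60% in size; about a fifth of the inactives were tested at one dose only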
#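 Cells stably selected in G418 were plated at 2000/well, grown 16-24 hr, then given compounds in DMSO with the PDE inhibitor […] (300 uM solution added) for 30 min at 37C; cAMP was read by HTRF.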
# * = called active by the depositor; u = inconclusive; x = no result given; & = joins results of further samples; [ ] = dose if it differs, or a comment. This is a random part of the collection; about 5.1% have a hit in one of these screens.
# Second line of a record: D2 potentiator	gsp ag	Menin MLL FP FL	ClpP mod	Sfp inh	TRPV1 PAM	gsp antag
1: Cc1ccc(NC(=S)N(CCC(C)C)C(C)c2ccncc2)c(Cl)c1 (stereo not given)
→ -5	-21%[15.4 µM]	-0.3	x	56µM*	12	-10%
2: CC(C)Cn1c(-c2cc(Br)ccc2F)nc2c1c(=O)[nH]c(=O)n2CC(C)C
→ -1	7%	0.2	x	-24%	-4	-29%
3: Cc1cc(C)c(S(=O)(=O)N2C=CC(C(F)(F)F)=NCC2)c(C)c1
→ 6	-25%	0.3	-0.6%	2%	-3	-10%
4: O=C(Nc1ccccc1F)C1CCCN(S(=O)(=O)c2ccccc2)C1 (stereo not given)
→ 3	11%[15.4 µM]	1.0	x	-5%	-1	x
5: C/C(=N\NC(=O)c1nc(C)cc(C)n1)c1ccccc1
→ -9	1%	0.4	-1.2%	11%	4	18%
6: CCOc1ccc2nc(SCC(=O)NCC3CCCO3)c(C#N)cc2c1 (stereo not given)
→ -6	u	x	x	4%	15	-7%
7: COCCC(=O)N1CCC(Oc2ccc(C(=O)NCc3cccc(C)n3)cc2)CC1
→ -3	0%	x	-3.2%	2%	14	1%
8: Cc1ccc(C(=O)OCC(=O)NC2CC2)cc1S(=O)(=O)N1CCOCC1
→ 1	2%	x	-1.0%	x	0	11%
9: COc1ccc(Cn2c(=O)oc3ccccc32)cc1
→ -2	-13%	x	-1.9%	x	x	x
10: CSc1nc(=S)n(-c2ccc([N+](=O)[O-])cc2)c(C)c1C(C)=O
→ 12	u	-1.1	0.9%	8%	-1	5%
11: COc1cc(NS(=O)(=O)c2ccc3[nH]c(=O)[nH]c3c2)cc(OC)c1
→ -3	16%	0.7	-0.4%&-0.3%	0%	-5	3%
12: O=c1[nH]c(=O)n(CCCc2ccccc2)cc1-c1ccccc1
→ -10	28%	x	0.4%	x	x	-3%
13: NC(=O)N/N=C/c1ccccc1OC(=O)c1cc2ccccc2oc1=O
→ -3	12%	-0.3	-0.6%	1%	-2	0%
14: Cc1ccccc1N1CCN(Cc2nc(Cc3ccccc3F)no2)CC1
→ -5	-6%[15.4 µM]	2.4	x	-2%	-4	-1%
15: CN(CC(=O)Nc1cc([N+](=O)[O-])ccc1Cl)Cc1ccc(Br)cc1
→ -39	21%	-0.9	-2.7%	u	3	-20%
16: Cc1ccc2c(CC(=O)OCc3nc(N)nc(Nc4ccccc4C)n3)coc2c1
→ -3	-19%	0.7	-0.7%	14%	7	-18%
17: C[C@H](NC(=O)Nc1ccc2c(c1)OCCO2)C(=O)O
→ -7	-59%[inhibitor]	2.1	-4.0%	7%	0	10%
18: O=C(CNC(=O)c1cccc(F)c1)OCC(=O)N1CCN(C(=O)c2ccco2)CC1
→ 12	6%	4.6	x	3%	u	7%
19: COc1ccc(CSC(=S)NNc2ccccc2)cc1
→ -21	-30%[inhibitor]	x	-0.1%	x	x	x
20: CCOC(=O)c1cc(NC(=O)c2ccccc2)c(=O)oc1C(F)(F)F
→ -3	-23%[15.4 µM]	-1.7	x	-8%	12	x

# Structures listed above that bear a hit mark in Sfp inh.
cpd	Molecule	D2 potentiator	gsp ag	Menin MLL FP FL	Sfp inh
1	Cc1ccc(NC(=S)N(CCC(C)C)C(C)c2ccncc2)c(Cl)c1 (stereo not given)	-5	-21%[15.4 µM]	-0.3	56µM*

# Additional structures:
# Second line of a record: D2 potentiator	gsp ag	Menin MLL FP FL	ClpP mod	Sfp inh	TRPV1 PAM	gsp antag
21: COc1ccc(CCCc2nnc(SCC(=O)NN)o2)c(C)c1
→ -1	-8%	8.5	x	-1%	-8	0%
22: COCCn1c(CCC(=O)O)nc2c1c(=O)[nH]c(=O)n2CC(C)C
→ 14	-21%	-1.1	1.4%	-4%	-1	10%
23: CCSc1sccc1C1C(C#N)=C(N)N(c2cccnc2)C2=C1C(=O)CCC2 (stereo not given)
→ 1	18%	1.3	-5.1%	4%	7	-8%
24: CCOc1ccc(NC(=O)c2cc(S(=O)(=O)N3CCOCC3)cs2)cc1
→ -4	27%	-1.1	1.7%	14%	-11	13%
25: Cn1c(NN)nc2sc3c(c2c1=O)CCC3
→ -32	-3%	3.9	11µM*	1%	6	6%
26: CCOC(=O)CCc1c(C)c(C#N)c2nc3ccccc3n2c1-n1ccnc1C
→ -15	-47%[inhibitor]	-0.9	-2.0%	10%	1	9%
27: CCc1ccc(-c2csc(NC(=O)C3=NN(c4ccccc4)C(=O)CC3)n2)cc1
→ -6	-7%	8.8	-6.9%	5%	7	u
28: COc1nc(N)nc(CC(=O)C2CC2)n1
→ -10	-12%	0.7	0.8%	9%	-2	9%
29: Cc1cnc(NS(=O)(=O)c2ccc(Cl)cc2)c(Br)c1
→ 1	1%[15.4 µM]	2.8	x	-1%	18	-6%
30: Cc1ccc(-n2[nH]c(C)c(C=Nc3ccc(S(=O)(=O)Nc4nc(C)cc(C)n4)cc3)c2=O)c(C)c1
→ 12	20%	4.0	3.2%	-14%	-14	-12%
31: CCCOc1ccc(C(=O)C(CN2CCCC2)c2ccccc2)cc1 (stereo not given)
→ -13	5%[15.4 µM]	4.0	1.0%	11%	2	6%
32: C/C(=N\NC(=S)Nc1cc(S(=O)(=O)N2CCOCC2)ccc1Cl)c1ccc(N2CCOCC2)cc1
→ -9	3%	-5.9	-30%	-14%	-5	-15%
33: CN(c1ccccc1)S(=O)(=O)c1cccc(NC(=O)CN2C(=O)NC3(CCCCC3)C2=O)c1
→ -3	17%	x	0.0%	x	3	-4%
34: CC(C1CC1)N(C(=O)NC1CCS(=O)(=O)C1)c1ccccc1 (stereo not given)
→ -3	-1%	2.6	-1.6%	7%	12	5%
35: O=C(CSc1cn(CCNC(=O)c2cccs2)c2ccccc12)NC1CCCCC1
→ -3	-43%[inhibitor]	2.6	-6.4%	2%	-23	u
36: Cc1ccc(NC(=O)c2cc(S(=O)(=O)N3CCOCC3)ccc2Cl)cc1S(=O)(=O)N1CCOCC1
→ 3	11%	x	-2.9%	x	x	-2%
37: Nn1c(SCC(=O)N2CCOCC2)nnc1-c1ccc(Cl)cc1Cl
→ 4	u	0.7	0.0%	8%	30	0%
38: CCCN(CCC)C(=O)CSc1ncccc1C(=O)O
→ -17	-54%[inhibitor]	0.5	-0.9%	u	1	10%
39: CCCc1cc(=O)oc2cc(C)cc(OC(C)C(=O)N[C@@H](Cc3c[nH]c4ccccc34)C(=O)O)c12 (stereo not given in full)
→ 5	u	-1.7	-11%	8%	8	3%
40: CCN(C(=O)COC(=O)c1ccc(O)cc1O)c1c(N)n(Cc2ccccc2)c(=O)[nH]c1=O
→ 1	0%	x	-0.8%	x	3	0%
41: OC(COc1ccc(Cl)cc1)CN1CCN(c2cccc(Cl)c2)CC1 (stereo not given)
→ -16	-2%[15.4 µM]	-0.6	x	-15%	-4	-2%
42: Cc1cccc(C)c1NC(=O)CN1CCN(C(=O)CNC(=O)Cc2cccc3ccccc23)CC1
→ -6	18%	x	-1.0%	x	x	x
43: CN(CC(=O)NC1CCCc2ccccc21)S(=O)(=O)c1ccc2c(c1)c(=O)n(C)c(=O)n2C (stereo not given)
→ -5	-8%	-2.5	-5.4%	3%	0	-3%
44: Cc1ccc(S(=O)(=O)NCC(=O)NCc2cc(=O)n(C)c(=O)n2C)cc1C
→ -5	8%	-1.7	0.4%	10%	1	6%
45: O=C(Nc1cccc(C(=O)O)c1)/C(=C\c1ccccc1)NC(=O)c1ccc(Br)o1
→ -12	-3%	x	-1.9%	x	x	x
46: CC(=O)c1c(N2CCN(c3ccc(F)cc3)CC2)nc(=S)n(-c2ccccc2)c1C
→ -32	19%	5.9	2.8%	4%	-1	0%
47: CCc1ccc(C(=O)NNc2cc(Cl)ccc2Cl)cc1
→ -11	-13%	0.1	1.1%	-5%	x	-17%
48: O=C(O)c1ccc(N2CCOCC2)c(N2C(=O)C3C4C=CC(C4)C3C2=O)c1 (stereo not given)
→ 3	-5%	-2.1	x	17%	5	6%
49: Cc1ccccc1CN1CCN(CC(=O)NC(C)c2ccccc2)CC1 (stereo not given)
→ -14	7%[15.4 µM]	0.7	-0.3%	24%	-10	-7%
50: O=C(CC1C(=O)N(Cc2ccccc2)C(=S)N1CCN1CCOCC1)Nc1ccc(F)cc1 (stereo not given)
→ -11	2%[15.4 µM]	-2.4	x	19%	0	-18%
51: Cc1ccc2nc(NCc3ccccc3)c(C#N)cc2c1
→ -5	-2%[15.4 µM]	-4.8	x	79µM*	-5	16%
52: Cc1ccc(-n2nnnc2SCC(=O)NC(C(=O)O)(c2ccccc2)c2ccccc2)cc1C
→ -5	-3%[15.4 µM]	-8.2	x	3%	-4	4%
53: CS(=O)(=O)c1ccc(NC(=O)c2cccc(-n3cnnn3)c2)cc1
→ 0	19%	x	0.0%	x	13	7%
54: COc1cc(OC)c(NC(=S)NCc2ccccc2)cc1Cl
→ -4	13%[15.4 µM]	-1.2	x	-1%	5	-7%
55: CCOC(=O)c1ccc(N2C(=O)c3cccc4c(C(=O)O)ccc(c34)C2=O)cc1
→ -3	u	0.0	-26%	-9%	5	-4%
56: CC1(c2ccccc2)CC2CC(c3ccccc3)N1O2 (stereo not given)
→ -9	-48%[inhibitor]	2.9	-0.5%	15%	-12	-3%
57: COc1ccccc1CNC(=O)C1CC2Cn3c(nc4cc(Cl)c(Cl)cc43)C2N1C (stereo not given)
→ -21	10%	x	-1.3%	x	x	u

# An excerpt from above in order of heavy-atom count, low to high:
# Second line of a record: D2 potentiator	gsp ag	Menin MLL FP FL	ClpP mod	Sfp inh	TRPV1 PAM	gsp antag
17: C[C@H](NC(=O)Nc1ccc2c(c1)OCCO2)C(=O)O
→ -7	-59%[inhibitor]	2.1	-4.0%	7%	0	10%
54: COc1cc(OC)c(NC(=S)NCc2ccccc2)cc1Cl
→ -4	13%[15.4 µM]	-1.2	x	-1%	5	-7%
4: O=C(Nc1ccccc1F)C1CCCN(S(=O)(=O)c2ccccc2)C1 (stereo not given)
→ 3	11%[15.4 µM]	1.0	x	-5%	-1	x
2: CC(C)Cn1c(-c2cc(Br)ccc2F)nc2c1c(=O)[nH]c(=O)n2CC(C)C
→ -1	7%	0.2	x	-24%	-4	-29%

# Assay outcomes as filed in PubChem.
